Assay outcomes deposited in PubChem by several laboratories.
FGF22 binding = FGF22 (human) thermal shift binding; recombinant FGF22 thermal shift, SYPRO orange fluorescence; percent of sucrose octasulfate shift, DMSO zero; calls only at 9.99 µM; 1.5% of 340,000 active;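 active = melting point raised past a set limit in the mean and every replicate; three in four hits are not shown here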
Target sequence (Q9HCT0 whole entry, looked up): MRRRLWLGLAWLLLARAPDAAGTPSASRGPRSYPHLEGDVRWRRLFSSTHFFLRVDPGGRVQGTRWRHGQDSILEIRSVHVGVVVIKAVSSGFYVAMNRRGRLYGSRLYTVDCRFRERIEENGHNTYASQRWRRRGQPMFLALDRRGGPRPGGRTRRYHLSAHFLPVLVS
ALR inh = blocks human ALR sulfhydryl oxidase activity | P55789 | inhibition, % (concentration not given with the values) | purified ALR, DTT oxidation, H2O2 HRP-luminol luminescence | AID 485317 | 3.8% of 290,000 active;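 active = mean and each replicate at 75% or more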;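 note: stock transfer was 7.5 nL into about 7.5 µL; 0% = neutral wells and 100% = wells with inactivated enzyme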
Target sequence (P55789 whole entry, looked up): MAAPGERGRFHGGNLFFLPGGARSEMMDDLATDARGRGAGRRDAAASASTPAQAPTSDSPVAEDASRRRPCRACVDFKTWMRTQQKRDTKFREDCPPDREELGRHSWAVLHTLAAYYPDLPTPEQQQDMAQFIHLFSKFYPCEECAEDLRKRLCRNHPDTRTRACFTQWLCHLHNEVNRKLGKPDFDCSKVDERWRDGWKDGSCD
Ecoli growth = inhibitors of Escherichia coli growth; OD600, 23 h; stronger effect = lower value; OD600 absorbance (no concentration beside the values); 0.21% of 330,000 active; AID 1053175;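 active = OD600 absorbance below the run mean of sample wells minus 3.6 SD, in any replicate, cut at about 0.56 in these data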;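 note: stock transfer was 300 nL into about 60 µL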
LANA-H2A inh = blocks KSHV LANA binding to histone H2A/H2B; cell-free LANA-H2A/H2B peptide, fluorescence polarization; 0.6% of 320,000 active; Q9QR71; AID 2629; inhibition, % (concentration not given with the values); in the data active = inhibition mostly above about 10%, no sharp cut-off; inactive = mostly below about 6.7%;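 note: stock transfer was 7.5 nL into about 10 µL; 0% = median of vehicle wells and 100% = median of positive control wells; one replicate is shown; the record names a cut of 25% in any replicate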
B2AR ag = human beta-2 adrenergic receptor agonism by FAP. P07550. Am2.2-beta2AR cells, FAP receptor internalization, flow cytometry; reference of the scale not given here. response, % (no concentration beside the values). 0.43% of 340,000 active. AID 504454;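 active = response above a set limit, near 3 SD of response in nonfluorescent compounds, cut at about 42% in these data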;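 note: stock transfer was 100 nL into about 11 µL; a reference agonist was the positive control; negative values mostly stem from fluorescent compounds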
Target sequence (P07550 whole entry, looked up): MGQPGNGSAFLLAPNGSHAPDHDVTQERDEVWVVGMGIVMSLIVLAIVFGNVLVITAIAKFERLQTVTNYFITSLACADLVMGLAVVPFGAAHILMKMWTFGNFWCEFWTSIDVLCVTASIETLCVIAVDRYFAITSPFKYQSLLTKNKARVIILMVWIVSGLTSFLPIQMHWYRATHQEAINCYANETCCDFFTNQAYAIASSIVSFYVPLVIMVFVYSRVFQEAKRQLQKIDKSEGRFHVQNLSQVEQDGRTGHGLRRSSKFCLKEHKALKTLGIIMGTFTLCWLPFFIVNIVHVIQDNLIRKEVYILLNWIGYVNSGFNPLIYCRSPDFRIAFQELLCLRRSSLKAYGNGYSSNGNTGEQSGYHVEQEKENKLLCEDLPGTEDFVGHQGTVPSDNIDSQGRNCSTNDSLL
HNF4A DNA FP = change in binding of human HNF4 alpha to DNA; activity change, % at 10 µM; HNF4a-FITC DNA binding, fluorescence polarization, 1 h; 0.3% of 360,000 active; in the data active = activity change above about 30%, passing the limit was not always enough;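 note: controls were the assay level and a saturating level of protein; the project sought stronger binding though the title names inhibitors; some compounds called inactive have numbers as strong as hits; positive values seem to mean higher polarization but the record does not say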
UCH37 DUB inh = inhibitors of human deubiquitinating enzyme UCH37; inhibition, % (concentration not given with the values); AID 588478; Q9Y5K5; purified proteasome/UCH37, Ub-AMC cleavage fluorescence; 0.33% of 330,000 active;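 active = mean of two replicates above 20%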;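 note: 0% = compound-free wells with enzyme and 100% = wells lacking proteasome; stock transfer was 100 nL into about 20 µL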
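Material: Human UCH37 enzyme supplied as purified proteasome complex | Schedule: 30 min preincubation with enzyme, 25 min cleavage at room temperature | Detection: AMC fluorescence 355/460 nm | Measure: % inhibition of Ub-AMC cleavage fluorescence | Controls: Wells without proteasome as full block, compound-free enzyme plus substrate as uninhibited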
* marks the source's active call; other numbers are inactive results.

Screening O=C(CC(=O)N/N=C/c1ccc(Cl)cc1Cl)NCc1ccccc1 returned ALR inh -19.0, LANA-H2A inh -4.6, B2AR ag 2.4 and HNF4A DNA FP -0.6.
For COc1ccc2oc(C)c(C(=O)c3ccccc3)c2c1 the results were FGF22 binding inactive, ALR inh -3.8, Ecoli growth 0.652, LANA-H2A inh -0.7, B2AR ag 3.5, HNF4A DNA FP 5.1 and UCH37 DUB inh -2.5.
`CCOc1ccc(CCNC(=O)Cc2ccc(NC(=O)C3=C(C)OCCS3)cc2)cc1` gave FGF22 binding inactive, ALR inh -3.5, Ecoli growth 0.657, LANA-H2A inh -2.5, B2AR ag -0.4, HNF4A DNA FP -1.1 and UCH37 DUB inh -1.2.
`CCN(C(=O)c1cc(Cl)ccc1OC)c1ccccc1C` gave ALR inh 1.0, Ecoli growth 0.72, LANA-H2A inh 4.1, B2AR ag 1.5, HNF4A DNA FP 1.8 and UCH37 DUB inh -0.7.
For COc1ccc(OCCOC(=O)CNC(=O)c2ccc(C)cc2)cc1 the results were FGF22 binding inactive, ALR inh 1.7, Ecoli growth 0.666, LANA-H2A inh -2.1, B2AR ag 1.8, HNF4A DNA FP 1.7 and UCH37 DUB inh 1.5.
CCCCc1ccc(NC(=S)NCc2ccccc2OC)cc1 was read as FGF22 binding inactive, ALR inh -11.7, Ecoli growth 0.682, LANA-H2A inh -2.3, B2AR ag -3.4, HNF4A DNA FP -2.9 and UCH37 DUB inh -2.9.
`CCOc1ccc(NC(=O)NNC(=O)c2cccnc2)cc1` gave FGF22 binding inactive, ALR inh 22.0, Ecoli growth 0.703, LANA-H2A inh -7.0, B2AR ag -2.5, HNF4A DNA FP 1.1 and UCH37 DUB inh 2.3.
Screening C=CCOCCN(C)C1=NS(=O)(=O)c2cc([N+](=O)[O-])ccc21 returned FGF22 binding inactive, ALR inh -28.5, Ecoli growth 0.665, LANA-H2A inh 1.4, B2AR ag 0.7, HNF4A DNA FP 0.8 and UCH37 DUB inh 4.8.
Screening Cc1nc2nc(SCC(N)=O)[nH]c2cc1Br returned ALR inh -6.6, Ecoli growth 0.757, LANA-H2A inh -5.9, B2AR ag -8.5, HNF4A DNA FP 0.7 and UCH37 DUB inh 4.6.
Screening CCOc1ccccc1NC(=O)c1cccc(N2C(=O)CCC2=O)c1 returned FGF22 binding inactive, ALR inh 3.0, Ecoli growth 0.635, LANA-H2A inh 9.5, B2AR ag 2.0, HNF4A DNA FP 0.4 and UCH37 DUB inh 0.3.
Screening Cc1cccc(CN2CCN(c3nc4nonc4nc3NC3CC3)CC2=O)c1 returned FGF22 binding inactive, ALR inh -11.2, Ecoli growth 0.723, LANA-H2A inh -1.6, B2AR ag -0.4, HNF4A DNA FP 2.8 and UCH37 DUB inh 5.6.
Screening CN(C)P(=O)(Nc1cccc2ccccc12)Nc1cccc2ccccc12 returned FGF22 binding inactive, Ecoli growth 0.764, LANA-H2A inh 1.9, B2AR ag -6.0, HNF4A DNA FP 2.5 and UCH37 DUB inh -19.9.
Screening COCCNC(=O)CS(=O)(=O)Cc1nc(-c2ccc(C)cc2)oc1C returned FGF22 binding inactive, ALR inh -34.3, Ecoli growth 0.768, LANA-H2A inh -0.9, B2AR ag 4.8, HNF4A DNA FP -2.6 and UCH37 DUB inh 2.1.
`Cc1c(N)c(C(C)(C)C)cc(C(C)(C)C)c1[N+](=O)[O-]` gave ALR inh -7.3, Ecoli growth 0.681, LANA-H2A inh -0.4, B2AR ag 5.9, HNF4A DNA FP 2.1 and UCH37 DUB inh 4.7.
For Cc1cccc(OCC(O)CN2C(C)(C)CC(O)CC2(C)C)c1C (stereo unspecified) the results were ALR inh -6.2, Ecoli growth 0.655, LANA-H2A inh 7.0, B2AR ag 5.6, HNF4A DNA FP -9.2 and UCH37 DUB inh 5.4.
`S=c1[nH]nc(COc2ccc3ccccc3c2)o1` gave ALR inh 30.0, Ecoli growth 0.731, LANA-H2A inh -1.0, B2AR ag -4.0, HNF4A DNA FP -0.7 and UCH37 DUB inh 3.2.
Screening COc1ccc(S(=O)(=O)NC2CCc3ccccc32)cc1OC (stereo unspecified) returned FGF22 binding inactive, ALR inh 0.8, Ecoli growth 0.699, LANA-H2A inh -1.2, B2AR ag 4.0, HNF4A DNA FP 0.3 and UCH37 DUB inh 2.6.
CCOc1ccc(C(=O)OCC(=O)NCCCc2ccccc2)cc1 was read as FGF22 binding inactive, ALR inh -3.9, Ecoli growth 0.659, LANA-H2A inh 1.0, B2AR ag -9.0, HNF4A DNA FP -2.8 and UCH37 DUB inh 1.1.
For COc1cc(C(=O)N(Cc2ccco2)Cc2cc3ccccc3[nH]c2=O)cc(OC)c1OC the results were ALR inh -7.8, Ecoli growth 0.723, LANA-H2A inh 1.7, B2AR ag -18.6, HNF4A DNA FP 1.7 and UCH37 DUB inh -0.9.
For O=C1CSC(c2cn(-c3ccccc3)nc2-c2cccs2)N1CC1CCCO1 (stereo unspecified) the results were ALR inh -0.3, Ecoli growth 0.749, LANA-H2A inh 10.0, B2AR ag -27.9, HNF4A DNA FP 0.9 and UCH37 DUB inh -4.1.

In the list so far, 3 contain an NH in an aromatic ring.
Screening Cc1nc2nc(SCC(N)=O)[nH]c2cc1Br returned ALR inh -6.6, Ecoli growth 0.757, LANA-H2A inh -5.9, B2AR ag -8.5, HNF4A DNA FP 0.7 and UCH37 DUB inh 4.6.
`S=c1[nH]nc(COc2ccc3ccccc3c2)o1` gave ALR inh 30.0, Ecoli growth 0.731, LANA-H2A inh -1.0, B2AR ag -4.0, HNF4A DNA FP -0.7 and UCH37 DUB inh 3.2.
For COc1cc(C(=O)N(Cc2ccco2)Cc2cc3ccccc3[nH]c2=O)cc(OC)c1OC the results were ALR inh -7.8, Ecoli growth 0.723, LANA-H2A inh 1.7, B2AR ag -18.6, HNF4A DNA FP 1.7 and UCH37 DUB inh -0.9.

Other structures follow:
Screening Cc1ccc(-c2csc3nc(-c4ccncc4)[nH]c(=O)c23)cc1 returned FGF22 binding inactive, ALR inh -0.8, Ecoli growth 0.68, LANA-H2A inh -6.4, B2AR ag 12.3, HNF4A DNA FP 77.3* and UCH37 DUB inh -139.5.
CSCCC(NC(=O)c1ccco1)C(=O)NC1CCC(C)CC1 (stereo unspecified) was read as FGF22 binding inactive, Ecoli growth 0.687, LANA-H2A inh -4.0, B2AR ag -8.3, HNF4A DNA FP -2.4 and UCH37 DUB inh 1.9.
Screening COC(=O)C1C(O)=C(C=Nc2ccc(N)cc2)C(=O)CC1(C)C (stereo unspecified) returned ALR inh 25.6, Ecoli growth 0.742, LANA-H2A inh 2.2, B2AR ag -5.2, HNF4A DNA FP -4.9 and UCH37 DUB inh 9.2.
Screening O=C(NCCCN1CCCC1=O)C1CCN(S(=O)(=O)c2ccc(Cl)cc2)CC1 returned FGF22 binding inactive, ALR inh -2.4, Ecoli growth 0.703, LANA-H2A inh -2.7, B2AR ag -10.2, HNF4A DNA FP -0.7 and UCH37 DUB inh 1.5.
O=[N+]([O-])c1ccc(Nc2nccc(Cl)n2)cc1 was read as FGF22 binding inactive, ALR inh -6.6, Ecoli growth 0.653, LANA-H2A inh -0.9, B2AR ag 4.9, HNF4A DNA FP -3.1 and UCH37 DUB inh 5.7.
COC(=O)[C@H](C)NC(=O)NC1CCN(Cc2ccccc2)CC1 was read as ALR inh 0.4, Ecoli growth 0.682, LANA-H2A inh -3.0, B2AR ag -0.3, HNF4A DNA FP -1.0 and UCH37 DUB inh 1.7.
COc1ccc(CC(=S)N2CCOCC2)cc1 was read as ALR inh -3.2, Ecoli growth 0.685, LANA-H2A inh 2.1, B2AR ag 4.0, HNF4A DNA FP -1.8 and UCH37 DUB inh 3.5.
For COCCNC(=O)CSc1ncnc2sc(-c3ccccc3)cc12 the results were FGF22 binding inactive, Ecoli growth 0.67, LANA-H2A inh 1.0, B2AR ag -3.2, HNF4A DNA FP -0.5 and UCH37 DUB inh 3.6.
Screening CC(=O)c1c(N2CCCCC2)nc(=S)n(-c2ccccc2)c1C returned ALR inh 1.1, Ecoli growth 0.742, LANA-H2A inh 0.2, B2AR ag 5.4, HNF4A DNA FP 3.8 and UCH37 DUB inh -0.2.
COc1cc(F)c(S(=O)(=O)N2CCOc3ccccc32)cc1OC was read as FGF22 binding inactive, ALR inh -4.1, Ecoli growth 0.673, LANA-H2A inh 3.0, B2AR ag -1.2, HNF4A DNA FP -1.8 and UCH37 DUB inh 4.2.
For Cc1ccc(-c2nnc(CCC(=O)NCc3csc(C)n3)o2)s1 the results were FGF22 binding inactive, ALR inh -0.4, Ecoli growth 0.724, LANA-H2A inh -2.3, B2AR ag -5.3, HNF4A DNA FP -1.3 and UCH37 DUB inh 0.9.
For COc1cc2c(cc1OC)CN(CC(=O)NC(=O)NC(C)(C)C)CC2 the results were FGF22 binding inactive, ALR inh -68.2, Ecoli growth 0.693, LANA-H2A inh -6.2, B2AR ag -7.7, HNF4A DNA FP -2.0 and UCH37 DUB inh -41.0.
`Cc1c(NC2(C#N)CCCC2)c(=O)n(-c2ccccc2)n1C` gave ALR inh 68.5, Ecoli growth 0.672, LANA-H2A inh 5.1, B2AR ag 1.3, HNF4A DNA FP 2.0 and UCH37 DUB inh 8.6.
Screening CCOC(=O)N1CCN(S(=O)(=O)c2cc(OCC)ccc2OCC)CC1 returned ALR inh -2.6, Ecoli growth 0.666, LANA-H2A inh -4.2, B2AR ag -19.6, HNF4A DNA FP -4.0 and UCH37 DUB inh 2.2.
`CCCCc1nc2sc3c(SCC(=O)NCc4ccco4)ncnc3c2c2c1CCC2` gave ALR inh 9.2, Ecoli growth 0.763, LANA-H2A inh -5.5, B2AR ag -5.1, HNF4A DNA FP -5.2 and UCH37 DUB inh -5.1.
Screening COC(=O)C1CCN(C(=O)Nc2ccc(OC)cc2)CC1 returned ALR inh -23.1, Ecoli growth 0.717, LANA-H2A inh 1.3, B2AR ag 6.1, HNF4A DNA FP 4.2 and UCH37 DUB inh 0.6.
Screening CC/C(=N\NC(=O)OC)c1ccc(OC(F)F)cc1 returned ALR inh 3.7, LANA-H2A inh 7.2, B2AR ag -4.1 and HNF4A DNA FP 2.5.
`COc1ccc(CCN(C)CCC(=O)Nc2cccc(C)c2)cc1OC` gave FGF22 binding inactive, ALR inh 2.9, Ecoli growth 0.656, LANA-H2A inh 3.6, B2AR ag -2.4, HNF4A DNA FP -0.5 and UCH37 DUB inh 2.7.
`CCN(CC)S(=O)(=O)c1ccc(C(=O)OCC(=O)NCc2ccco2)cc1` gave FGF22 binding inactive, ALR inh -0.9, Ecoli growth 0.718, LANA-H2A inh -1.8, B2AR ag 7.4, HNF4A DNA FP -0.8 and UCH37 DUB inh -0.4.
Screening CCOc1ccc(C2c3[nH]c4ccccc4c3CCN2Cc2cn(CC)nc2C)cc1 (stereo unspecified) returned FGF22 binding inactive, ALR inh -22.0, Ecoli growth 0.65, LANA-H2A inh 5.6, B2AR ag -1.4, HNF4A DNA FP 1.5 and UCH37 DUB inh -12.3.
`CCN(c1ccc(F)cc1)S(=O)(=O)c1ccc2[nH]cc(C(=O)NCCCN3CCOCC3)c(=O)c2c1` gave FGF22 binding inactive, ALR inh 1.2, Ecoli growth 0.593, LANA-H2A inh 1.6, B2AR ag -1.6, HNF4A DNA FP 2.4 and UCH37 DUB inh -11.0.
Cc1ccc2c(c1)N(CCCC(=O)NCCCN1CCCC1=O)C(=O)CO2 was read as FGF22 binding inactive, ALR inh 1.1, Ecoli growth 0.727, LANA-H2A inh 1.4, B2AR ag 3.2, HNF4A DNA FP -1.1 and UCH37 DUB inh 5.1.
Screening Cc1cc(NC(=O)c2cc(-c3ccccc3)on2)n(-c2ccccc2)n1 returned ALR inh 0.1, Ecoli growth 0.719, LANA-H2A inh -0.2, B2AR ag -3.3, HNF4A DNA FP -3.4 and UCH37 DUB inh -8.3.

The list is partial; rates above refer to the full screens.
